# Rango complex inh: qHTS Assay for Inhibitors of Rango (Ran-regulated importin-beta cargo) - Importin beta complex formation; Potency, µM (top dose mostly 92.2 µM), for inactives: at the highest dose inhibition of complex formation; 340,000 tested, 0.031% active; Importin subunit beta-1 (Homo sapiens), Q14974; Rango CFP/YFP FRET sensor + importin beta, 45 min; AID 540263, 2011; active = rising FRET ratio curve, often small or poorly fitted; inconclusive = mostly compound fluorescence or quenching in the first reads; inactive = flat curves in all reads;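 also: potency is read from the fitted curve at half-maximal effect; 0% = DMSO wells and 100% = buffer wells lacking importin beta; nearly all actives have a fitted effect of over 15% in size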
#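 FRET biosensor (snurportin 1 IBB flanked by EYFP and cerulean), 50 nM, with compound 5 min, then 0.125 microM importin beta in PBS, 1 mM DTT, 0.02% Tween-20, 0.1% BSA. CFP/YFP ratio read after 45 min at room temperature; pre-read flags interference.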
# miR-21 reporter: qHTS Assay for Modulators of miRNAs and/orActivators of miR-21; Potency, µM (series often up to 38.3 µM), inactives show top-dose reporter change, positive = more light; AID 2288, 2010; HeLa miR-21 FLuc reporter, luciferase, 48 h; 340,000 tested, under 10 active; active = well fitted rising curve with a large enough effect; inconclusive = small, poorly fitted or top-dose-only effect; inactive = no such curve, though single readings can be large or run the other way;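 also: % of control where 0% means no effect; miR-21 action dims this reporter so a rising signal means less miR-21 action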
#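 Luminescence from a firefly luciferase reporter carrying a miR-21 binding site downstream, stably expressed under a CMV promoter in HeLa cells that make miR-21 endogenously, reports miRNA modulation after 48 h compound exposure up to approximately 40uM final.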
# Rango release inh: qHTS Assay for Inhibitors of RanGTP induced Rango (Ran-regulated importin-beta cargo) - Importin beta complex dissociation; Snurportin-1 (Homo sapiens) + GTP-binding nuclear protein Ran (Homo sapiens) + Importin …; Biochemical FRET Rango-importin beta, RanGTP-induced dissociation; Potency, µM (top dose mostly 46.1 µM), for inactives: at the top dose activity change, negative = inhibition; 340,000 tested, 0.071% active; active means falling FRET ratio curve, often poorly fitted, with flat reads before Ran was added; inconclusive means other falling curves, or compound fluorescence or quenching; inactive means flat or rising ratio curve;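 also: potency is read from the fitted curve at half-maximal effect; % of control where 0% means no effect; nearly all actives have a fitted effect of over 45% in size; -100% = wells without RanGTP and RCC1; the record marks most hits as doubtful in a second field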
#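 FRET read at 45 min, room temperature: inhibitors block the CFP/YFP signal rise when RanGTP (0.6 uM Ran, 2 mM GTP, 0.2 uM RCC1) frees Rango (0.1 uM) from importin beta (0.25 uM). Pre-read after 5 min compound exposure flags interference.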
# GLA inh pH 4.5: qHTS Assay for Inhibitors of Human alpha-Galactosidase at pH 4.5 | Alpha-galactosidase A (Homo sapiens), P06280 | purified enzyme, 4-MU-alpha-Gal fluorescence, pH 4.5 | activity change, negative = inhibition, % at 105 µM | 230,000 tested, under 10 active | AID 1467, 2008; inconclusive = small, poorly fitted or top-dose-only inhibition, or a rising curve; inactive = flat fitted curve, though single readings scatter; no compound was filed as active;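 also: 0% = full activity with enzyme and -100% = basal without enzyme; dose as in the result columns while the protocol names 77 µM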
# Target sequence (P06280 whole entry, looked up): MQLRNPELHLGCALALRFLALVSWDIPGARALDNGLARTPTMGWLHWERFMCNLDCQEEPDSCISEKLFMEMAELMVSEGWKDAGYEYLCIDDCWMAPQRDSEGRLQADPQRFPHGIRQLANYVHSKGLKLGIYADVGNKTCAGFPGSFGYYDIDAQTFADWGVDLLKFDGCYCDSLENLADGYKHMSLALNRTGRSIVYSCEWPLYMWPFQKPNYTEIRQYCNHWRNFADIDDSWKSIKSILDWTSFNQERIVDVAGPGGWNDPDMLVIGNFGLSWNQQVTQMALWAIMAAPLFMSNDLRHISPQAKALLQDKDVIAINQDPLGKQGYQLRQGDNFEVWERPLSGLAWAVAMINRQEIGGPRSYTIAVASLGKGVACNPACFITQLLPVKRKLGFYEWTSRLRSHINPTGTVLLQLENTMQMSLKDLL
# Numbers without * were called inactive; ? = inconclusive; · = no result given; & = joins results of further samples. The list is partial; the hit share may differ from the screen's.
SMILES,Rango complex inh,miR-21 reporter,Rango release inh,GLA inh pH 4.5
Cc1cccc(-n2cnc(C(=O)N/N=C\c3ccc(Br)cc3)c2)n1,2.2%,-1%,50%,3
Cc1ccc(OCC(=O)OCC(=O)c2ccccc2)cc1C,-0.5%,1%,14%,·
COc1cc(/C=C/C(=O)N2CC(C)OC(C)C2)cc(OC)c1OC (stereo unspecified),0.6%,0%,-7%,·
Cc1cc(OCC(=O)Nc2c(C)n(C)n(-c3ccccc3)c2=O)ccc1[N+](=O)[O-],0.0%,1%,-11%,·
O=C(CN1CCN(c2ccccc2F)CC1)NCc1ccccc1,-1.3%,-6%,18%,·
CCOC(=O)c1ccc(NC(=O)N2CCN(c3cccc(OC)c3)CC2)cc1,0.1%,3%,1%,8
Cc1ccc(C(C)C)c(OCC(O)CN2CC(C)OC(C)C2)c1 (stereo unspecified),0.1%,-1%,3%,6
O=C(c1cccs1)N(C(=O)c1cccs1)c1ccccn1,-5.3%,-38%,5%,6
COc1ccc(-c2c(-c3ccccc3OC)oc3ccccc23)cn1,4.3%,·,8%,·
COC(=O)c1ccccc1S(=O)(=O)N1CCC(C(=O)N2CCC2)CC1,-1.7%,·,48%,·
COc1cccc(N2CCN(C(=O)C3CCCN(S(=O)(=O)c4ccc5c(c4)oc(=O)n5C)C3)CC2)c1 (stereo unspecified),0.2%,-1%&28%,10%,·
Cn1c(=NC(=O)C(C)(C)C)sc2cccc(F)c21,-0.4%,-12%,14%,-11
CC(=O)Nc1ccc(NC(=O)COC(=O)C2CCCCC2)cc1,2.1%,·,6%,·
NC(CO)C12CC3CC(CC(C3)C1)C2 (stereo unspecified),-1.2%,2%,?,-5
CSc1sc(C(=O)NC(=O)NCc2cccnc2)c(C)c1-c1ccon1,-2.5%,0%,-16%,-2
O=C(NCCN1CCCCC1)c1cc(OCC(F)(F)F)ccc1OCC(F)(F)F,-0.5%,1%,20%,2
Cc1cc(=O)[nH]c(N/N=C/c2ccc(F)cc2)n1,0.1%,-16%,6%,·
Cc1ccc(NC(=S)N2CCCC(c3nc4ccccc4[nH]3)C2)cc1 (stereo unspecified),-0.9%,3%,4%,-10
CC1Sc2ccc(S(=O)(=O)N3CCN(c4ccccc4)CC3)cc2NC1=O (stereo unspecified),-1.1%,17%,1%,·
COc1ccc(C2C3=C(CC(C)(C)CC3=O)N(C)C3=C2C(=O)CC(C)(C)C3)cc1,?,3%,?,-4
COc1ccccc1CCNC(=O)C(=O)c1cn(CC(=O)N2CCOCC2)c2ccccc12,-0.8%,-43%,8%,·
CCCCn1c(=O)n(C)c(=O)c2c(C(F)(F)F)cc(-c3ccncc3)nc21,-3.3%,0%,3%,16
CCOC(=O)N1CCN(C(=O)c2cn(C)c3ccc(S(=O)(=O)N4CCOCC4)cc3c2=O)CC1,1.1%,0%,-24%,·
Cc1nn(-c2ccc(F)cc2)c(Cl)c1/C=C1\C(=O)Nc2ccccc21,0.7%,14%,-12%,8
CC(=O)C[C@H](O)CC(=O)[C@H]1OC(=O)CCCCC/C=C/Cc2ccccc21,-2.1%,·,-11%,·

# The listing continues:
SMILES,Rango complex inh,miR-21 reporter,Rango release inh,GLA inh pH 4.5
Cc1cc(C)c(S(=O)(=O)N2CCCCC2CCNC(=O)C(=O)NC2CC2)c(C)c1 (stereo unspecified),-3.4%,·,7%,·
NS(=O)(=O)c1cnccc1Nc1ccc(Cl)c(Cl)c1,-2.6%,-17%,17%,2
C[n+]1cccc2cccc([O-])c21,-2.5%,2%,-8%,-1
O=C(O)C1CC(O)CN1c1nc(Cl)ccc1[N+](=O)[O-] (stereo unspecified),5.1%,-2%,-15%,2
N=c1c(C(=O)NCC2CCCO2)cc2c(=O)n3ccccc3nc2n1Cc1ccccc1 (stereo unspecified),?,1%,?,·
COC(=O)CN1C(=O)[C@H]2[C@@H](/C=C/c3ccccc3)N3C(=O)CN(Cc4ccccc4)C(=O)[C@@]3(Cc3ccccc3)[C@H]2C1=O,-1.0%,-2%,-15%,·
CC(=O)Nc1ccc(C=NNc2ccc([N+](=O)[O-])cn2)cc1,?,·,?,·
CC(C)(C)[C@H]1COC(=O)CCC/C=C/C[C@H](CC(=O)NCCO)C(=O)N1,2.3%,·,9%,·
CCOc1ncccc1C(=O)OCC(=O)c1ccc(C)c(C)c1,?,-15%,1%,-8
CC(=O)Nc1ccc2nc(NC(=O)CS(=O)(=O)c3ccccc3)sc2c1,-2.4%,·,10%,·
CCOC(=O)NC1=NCC(C)S1 (stereo unspecified),0.6%,-6%,-9%,3
COc1ccc(-c2oc(=O)c3cc(OC)c(OC)cc3c2C#C[C@]2(O)CC[C@H]3[C@@H]4CCc5cc(OC)ccc5[C@H]4CC[C@@]32C)cc1,3.7%,·,-9%,·
COCCNC(=O)C(c1ccc(F)cc1)N(C(=O)CCC(=O)Nc1ccccn1)c1cccc(C)c1 (stereo unspecified),0.3%,1%,-5%,·
Cc1nnc(SCC(=O)NC(C)(C)C)n1NCc1ccc(Cl)cc1,-0.3%,1%,1%,-2
COc1ncccc1-c1nnn(-c2ccc(Cl)nc2)n1,-3.5%,-48%,-2%,-3
COc1ccc(/C=C/c2c(-c3ccc(OC)cc3)oc3ccccc23)cc1,-2.5%,-3%,-25%,·
Cc1ccc(CNC(=O)C2CCCN(c3cnccn3)C2)cc1 (stereo unspecified),-0.4%,-1%,-6%,·
COC(=O)c1cc(C(=O)Nc2ccc(Cl)cn2)cc([N+](=O)[O-])c1,0.0%,3%,21%,5
O=C(O)c1ccccc1S(=O)(=O)c1ccccc1CO,1.3%,3%,-12%,3
O=C(NNC(=O)C1CC(=O)N(c2ccc3c(c2)OCCO3)C1)c1ccc(F)cc1 (stereo unspecified),2.6%,·,0%,·
Cc1ccc(S(=O)(=O)NC(=O)N(CCC#N)Cc2ccccc2)cc1,-1.0%,-3%,23%,·
Cc1ccnc(SCC(=O)c2ccc([N+](=O)[O-])cc2)n1,-2.6%,0%,-8%,4
CCCCN(C)CC(O)Cn1cc(/C=C/C(=O)c2ccc(C)cc2)c2ccccc21 (stereo unspecified),?,?,?,·
CCOC(=O)c1[nH]c(C)c(C(=O)c2cc(F)ccc2F)c1C,-0.5%,0%,20%,1
CN(C)CCNC(=O)C(C(=O)c1ccc(F)cc1)n1ccccc1=O (stereo unspecified),-4.2%,-2%,1%,-7

# Remaining list, next part.
SMILES,Rango complex inh,miR-21 reporter,Rango release inh,GLA inh pH 4.5
O=C(NCC(c1cccs1)N1CCOCC1)c1cc2ccccc2oc1=O (stereo unspecified),-2.2%,·,-24%,·
O=C(CCSCCC(=O)NN=Cc1cccc(Cl)c1)NN=Cc1cccc(Cl)c1,2.4%,·,6%,·
COc1ccc(COC(=O)C2CCN(S(=O)(=O)c3ccc(Cl)cc3)CC2)cc1,-0.3%,·,-10%,·
CC(=O)N1CCc2cc(S(=O)(=O)N3CCCCCC3)ccc21,-0.8%,-6%,9%,·
COc1ccc(S(=O)(=O)N2CCN(CCc3ccccc3)CC2)cc1,-1.0%,1%,0%,·
CC(C)(C)c1ccc(S(=O)(=O)N2CCN(CCC#N)CC2)cc1,-5.3%,1%,-3%,6
c1ccc(Cn2cc(CN3CCCO3)c(-c3ccc4c(c3)OCO4)n2)cc1,-0.5%,-5%,0%,5
Cc1cccc(CCNC(=O)c2cc(S(=O)(=O)N3CCCC3)cn2C)c1,2.0%,-1%,-10%,·
O=C(O)CC/C(=N/Nc1ccc([N+](=O)[O-])cc1)C(=O)O,?,-6%,-8%,-16
CSc1ccc(CCNC(=O)C2CCCN(c3ncnc4c3nc3n4CCCCC3)C2)cc1 (stereo unspecified),4.0%,0%,4%,·
CC(C)NC(=O)CN1CCC(O)(c2ccccc2)CC1,-1.1%,0%,1%,1
CCOc1cc2[nH]c(=O)n(CCCC(=O)N(C)Cc3ccccc3)c(=O)c2cc1OCC,0.2%,-26%,1%,8
COc1ccccc1-c1sc2ccccc2c1-c1ccc(Br)nc1,0.7%,·,15%,·
COc1cccc(NC(=O)CN2C(=O)C(c3ccc(C)cc3)=NC23CCCCCC3)c1,-2.9%,-12%,1%,-3
COc1ccc(C(=O)NCCc2ccc(C(F)(F)F)cc2)cc1S(=O)(=O)N1CCOCC1,0.4%,·,-16%,·
COc1ccccc1CN1CC(C(=O)NCc2cccc(C)n2)CCC1=O (stereo unspecified),-1.8%,-5%,-12%,·
O=C1/C(=C/c2ccc([N+](=O)[O-])cc2)CCc2ccccc21,·,-54%,·,8
C/C(=N\NC(=O)C1=NNC(=O)C1C)c1cccs1 (stereo unspecified),0.2%,-51%,7%,-3
COc1ccc(OC)c(CCNC(=O)CCC(=O)N2CCOc3ccc(C)cc32)c1,-1.2%,0%,-5%,·
O=C(c1cccs1)N1CCC2(O)CCCCC2C1c1ccc(F)cc1 (stereo unspecified),3.8%,-5%,-19%,-1
Cc1ccc(NC(=O)Nc2ccccc2C(N)=O)cc1,-2.9%,-33%,0%,-9
Cc1cc(C)n(CCN(C)c2nc3nonc3nc2NC2CC2)n1,-0.3%,-2%,16%,-10
OC(COc1ccc(Cl)c2ccccc12)CN1CCN(c2ccccn2)CC1 (stereo unspecified),-1.2%,-8%,-11%,-14
CCN(CC)c1ccc(NC(=O)c2cnc3ccccn3c2=O)c(C)c1,1.9%,-3%,0%,-7
COC(=O)C1CCN(C(=O)CSc2nnc(-c3ccncc3)o2)CC1,1.8%,1%,2%,5

# The list continues:
SMILES,Rango complex inh,miR-21 reporter,Rango release inh,GLA inh pH 4.5
CCN(Cc1ccccc1)C1CCN(Cc2ccccc2)CC1,-1.3%,-2%,0%,·
Cc1c(NC(=O)OCCSc2nc(N(C)C)nc(N(C)C)n2)sc(=S)n1C,-2.0%,-11%,-2%,7
Cn1c(=O)c2[nH]c(CCCCCCCCc3nc4ccccc4[nH]3)nc2n(C)c1=O,2.3%,·,2%,·
N#Cc1nc(-c2ccc(OCc3ccccc3)cc2)oc1NCCCn1ccnc1,?,-4%,0%,-10
CC(C)c1ccccc1NC(=O)CNCCOc1ccccc1F,0.7%,-4%,0%,·
CCCC(C)NC(=O)CN1C(=O)c2cccc3cccc1c23 (stereo unspecified),?,-16%,?,·
CCOC(=O)c1c(NC(=O)c2ccoc2C)sc(C)c1C,-4.5%,0%,?,3
CCOc1cccc(OCCOCCN2CCCC2)c1,0.1%,0%,-11%,4
O=S(=O)(NC1=NCCC1)c1cccc(NC(=S)Nc2ccc(OC(F)F)cc2)c1,-0.3%,·,11%,·
CC1CCCN(C(=O)COC(=O)Cc2c[nH]c3ccccc23)C1 (stereo unspecified),6.1%,·,-9%,·
COCCN(CCOC)S(=O)(=O)c1ccc(C(=O)Nc2nc(-c3ccncc3)cs2)cc1,4.8%,3%,5%,8
Cc1ccc(C(=O)N/N=C\c2ccc(-c3ccc(Cl)cc3)o2)cn1,?,21%,0%,-10
CCOC(=O)C1=CN(Cc2cccc(F)c2)S(=O)(=O)N(CC)C1c1ccc(C(F)(F)F)cc1 (stereo unspecified),6.2%,·,-1%,·
O=C1CSC(=S)N1N=Cc1ccc(Cl)s1,-0.9%,·,2%,·
NC(=O)c1ccccc1NC(=S)NC(=O)c1ccc(Br)o1,-0.3%,-43%,10%,-1
Cc1ccc(S(=O)(=O)Nc2ccc(C(=O)NC3CC3)cc2)cc1,4.8%,-4%,-7%,·

# Looked up above.
# COCCN(CCOC)S(=O)(=O)c1ccc(C(=O)Nc2nc(-c3ccncc3)cs2)cc1 in Rango release inh has 5%
# Cc1ccc(C(=O)N/N=C\c2ccc(-c3ccc(Cl)cc3)o2)cn1 in miR-21 reporter has 21%
# CCCC(C)NC(=O)CN1C(=O)c2cccc3cccc1c23 (stereo unspecified) in miR-21 reporter has -16%

# A second format for 2 compounds above:
# Results follow in this order: Rango complex inh, miR-21 reporter, Rango release inh, GLA inh pH 4.5
- CCOc1cccc(OCCOCCN2CCCC2)c1
    0.1%, 0%, -11%, 4
- O=S(=O)(NC1=NCCC1)c1cccc(NC(=S)Nc2ccc(OC(F)F)cc2)c1
    -0.3%, ·, 11%, ·
